GIV-Gai inh = inhibitors of GIV peptide binding to Galpha-i3, primary screen, biochemical, fluorescence polarization, FITC-GIV GBA peptide, rat Galphai3; Guanine nucleotide-binding protein G(i) subunit alpha-3 (Rattus norvegicus), P08753; 90 min; stronger effect = lower value; scaled: aluminum fluoride 0%, vehicle 100%; percent of control (FP), % (test concentration not listed); 0.42% of 210,000 active; AID 1224905, 2016;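 active = replicate mean at 85% of control or lower, very high polarization wells dropped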;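 note: wells of about 15 µL received 100 nL stock; the first replicate is given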
Target sequence (P08753 whole entry, looked up): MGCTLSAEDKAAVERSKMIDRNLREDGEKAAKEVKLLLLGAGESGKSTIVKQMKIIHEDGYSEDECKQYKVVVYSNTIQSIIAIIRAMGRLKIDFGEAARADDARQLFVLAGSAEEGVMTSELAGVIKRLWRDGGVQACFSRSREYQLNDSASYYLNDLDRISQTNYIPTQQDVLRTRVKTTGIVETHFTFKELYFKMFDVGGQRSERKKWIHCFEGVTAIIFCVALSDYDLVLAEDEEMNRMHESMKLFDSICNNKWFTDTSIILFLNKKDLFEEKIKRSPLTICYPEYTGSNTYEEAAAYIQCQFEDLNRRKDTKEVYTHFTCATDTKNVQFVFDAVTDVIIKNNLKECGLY
HCMV NEC inh = inhibitors of HCMV UL50-UL53 interaction, biochemical, HTRF. normalized percent inhibition. 0.15% of 190,000 active. inhibition, % (no concentration beside the values);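 active = both replicates at 50% or more, plus weaker picks with an unusually low signal ratio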;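 note: stock transfer was 100 nL into about 20 µL; 0% = negative control wells and 100% = wells with untagged competitor protein; inactives centre near -12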
Sa growth 42C = S. aureus growth inhibition at 42 and 30 °C, primary screen, LtaS inhibitor project, RN4220, two temperatures | 0.53% of 170,000 active | relative growth, % (concentration not given with the values) | OD600, 20 h, 42 °C; stronger effect = lower value;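 active = growth at 42 °C up to 50% and 20 or more points under that at 30 °C, or under 10% at both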;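 note: 300 nL library stock went into each well; scaled to the means of positive and negative controls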
Sa growth 42C second temp = further read-out of Sa growth 42C, marked with its call; relative growth, %; measured here: growth at 30 °C;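 optical density after 20 h as mean of two plates; 100% = untreated growth and lower means inhibition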
Starred values were filed as active, the others as inactive; · = no result given; & = joins results of further samples.

Assay codes: A = GIV-Gai inh; B = HCMV NEC inh; C = Sa growth 42C; D = Sa growth 42C second temp
> COc1ccc(CCn2c3c(c(=O)[nH]c2=O)C(NC(=O)c2ccc(C(C)(C)C)cc2)(C(F)(F)F)C(=O)N3)cc1OC (stereo not given)
  A = 101 | B = 8 | C = 96 | D = 95

> N#Cc1ccc(C(=O)NCc2ccccc2)cc1
  A = · | B = -17 | C = 91 | D = 93

> Cc1oc2ncn(C)c(=O)c2c1C(=O)N(C)c1ccc(F)cc1
  A = 99 | B = -35 | C = 90 | D = 84

> Cc1ccc(OCCCn2c(-c3ccc(Cl)cc3)nc3ccccc3c2=O)c(C)c1
  A = 106 | B = -23 | C = 106 | D = 88

> CCOC(=O)N1CCN(Cc2ccc(C(=O)Nc3ccccc3)cc2)CC1
  A = · | B = 10 | C = 97 | D = 99

> CC(C)CCNC(=O)c1cc(Sc2ccc(F)cc2F)nc2ccccc12
  A = 98 | B = · | C = 132 | D = 91

> CCCN(C(=O)[C@H](Cc1ccccc1)N1C(=O)c2ccccc2C1=O)C1CCS(=O)(=O)C1 (stereo not given in full)
  A = · | B = -6 | C = 87 | D = 97

> CCn1nc(C)c2c1c(=O)n(CCc1ccccc1)c(=O)n2CC(=O)Nc1ccsc1C(=O)OC
  A = 97 | B = 2 | C = · | D = ·

> Cc1cc(N2CCC(C(N)=O)CC2)nc2c(C(C)C)cccc12
  A = · | B = -22 | C = 93 | D = 94

> Cc1oc2ccc(OC(=O)COc3c(F)c(F)c(F)c(F)c3F)cc2c1C(=O)OC(C)C
  A = 103 | B = -21 | C = · | D = ·

> CCOc1cc(-n2cnnn2)c(OCC)cc1N
  A = 102 | B = -4 | C = 95 | D = 88

> COc1ccc(N2CCN(S(=O)(=O)c3c(C)nc4sc(C)cn4c3=O)CC2)cc1
  A = 104 | B = · | C = 119 | D = 85

> CC(C)CNC(=O)CSc1n[nH]c(-c2ccc(Br)cc2)n1
  A = · | B = 8 | C = 84 | D = 93

> CCCc1cc(=O)n2[nH]c(NC(=O)c3ccccc3)nc2n1
  A = 98 | B = -12 | C = 95 | D = 82

> O=C(CSc1nc2cc(C(=O)NC3CCCC3)ccc2c(=O)n1CC1CCCO1)c1cccc(Cl)c1 (stereo not given)
  A = 107&100 | B = 3 | C = 79 | D = 88

Reformatted: 4 of the compounds above
CC(C)CNC(=O)CSc1n[nH]c(-c2ccc(Br)cc2)n1
  GIV-Gai inh: ·; HCMV NEC inh: 8; Sa growth 42C: 84; Sa growth 42C second temp: 93
COc1ccc(CCn2c3c(c(=O)[nH]c2=O)C(NC(=O)c2ccc(C(C)(C)C)cc2)(C(F)(F)F)C(=O)N3)cc1OC (stereo not given)
  GIV-Gai inh: 101; HCMV NEC inh: 8; Sa growth 42C: 96; Sa growth 42C second temp: 95
CCOc1cc(-n2cnnn2)c(OCC)cc1N
  GIV-Gai inh: 102; HCMV NEC inh: -4; Sa growth 42C: 95; Sa growth 42C second temp: 88
CCn1nc(C)c2c1c(=O)n(CCc1ccccc1)c(=O)n2CC(=O)Nc1ccsc1C(=O)OC
  GIV-Gai inh: 97; HCMV NEC inh: 2; Sa growth 42C: ·; Sa growth 42C second temp: ·

(further entries)
Assay codes: A = GIV-Gai inh; B = HCMV NEC inh; C = Sa growth 42C; D = Sa growth 42C second temp
> N#CCOc1ccc2ccccc2c1
  A = 103 | B = -2 | C = 108 | D = 106

> CCN(CC)C(=O)Cn1c(=O)n(CCCCCC(=O)NCc2ccc(C)cc2)c(=O)c2sccc21
  A = 103 | B = 7 | C = 98 | D = 95

> Cc1ccc(S(=O)(=O)c2nnn3c2nc(N2CCOCC2)c2sccc23)cc1C
  A = 105 | B = · | C = 95 | D = 77

> CNS(=O)(=O)c1ccc2c(c1)C(=NO)c1cc(S(=O)(=O)NC)ccc1-2
  A = 103 | B = · | C = 120 | D = 101

> Cc1ccc(C)c(N2CCN(CCCNC(=O)Nc3ccc(F)c(Cl)c3)CC2)c1
  A = 99 | B = -9 | C = 30 | D = 25

> Nc1c(-c2nc(-c3ccccc3)cs2)c2ccccn2c1C(=O)c1ccccc1
  A = 110 | B = · | C = 114 | D = 86

> Cc1ccc(C(=O)N2CCC(NC(=O)Cc3ccccc3)CC2)cc1
  A = 103 | B = -18 | C = 99 | D = 95

> CCCCC(=O)Nc1ccc(OCc2cc(=O)n3c(C)csc3n2)cc1
  A = 160 | B = -33 | C = 91 | D = 87

> CCOC(=O)CCCN1c2ccccc2CCC1C(=O)OCC (stereo not given)
  A = · | B = 0 | C = 103 | D = 82

> COc1ccc2nc(C)cc(Cl)c2c1
  A = · | B = -25 | C = 99 | D = 89

> COC(CNC(=S)Nc1cccc(C)c1)OC
  A = 116 | B = -7 | C = 107 | D = 95

> Cc1c(-c2ccccc2)[n+](=O)c2c(n1[O-])CCC2
  A = 97 | B = -35 | C = 94 | D = 93

> CC1CCCC/C1=N\NC(=O)CC#N (stereo not given)
  A = · | B = 15 | C = 97 | D = 101

> CC(C)Cc1ccc(CC(=O)O)cc1
  A = · | B = -14 | C = 101 | D = 97

> CCOC(=O)c1c[nH]c2ccc(Cl)cc2c1=O
  A = 97 | B = -19 | C = 88 | D = 87

Carrying on:
Every second line gives: GIV-Gai inh | HCMV NEC inh | Sa growth 42C | Sa growth 42C second temp
COc1ccc(S(=O)(=O)NC2COc3ccc(Br)cc3C2)cc1OC (stereo not given)
    104 | -5 | · | ·
CN(C(=O)COc1cccc(Br)c1)C1CCS(=O)(=O)C1 (stereo not given)
    106 | 6&4 | 105 | 104
Cc1cc(C(=O)NCCCN2CCN(c3cc(Cl)ccc3C)CC2)n(-c2ccccc2)n1
    106 | -13 | 87 | 68
COC(=O)CSc1nc(C(C)(C)C)cc(C(F)(F)F)n1
    106 | -9 | 116 | 111
CCSc1nnc(NC(=O)/C=C/c2ccccc2)s1
    102 | · | 104 | 86
N#C/C(=C\c1cn(-c2ccccc2)nc1-c1cccs1)c1ccc(C#N)cc1
    102 | -8 | 99 | 98
Cc1ccc(CNc2ncnc3c2c(-c2ccccc2)cn3-c2cccc(Cl)c2)cc1
    107 | · | 109 | 85
CN(C(=O)CSc1ccc2c(c1)OCCO2)c1ccccc1
    · | 2 | 96 | 100
O=C(NC1CCCCC1)c1nc[nH]c1C(=O)NCC1CCCCC1
    106 | 2 | · | ·
N#CCc1c(Cl)cccc1Cl
    · | -17 | 74 | -1
CCc1ccc(NC(=O)Nc2cc3sccc3n2C)cc1
    115&110 | -13&-20 | 104 | 93
Cc1oc2cc(O)ccc2c(=O)c1-c1nc2ccccc2n1C
    107 | -10 | 93 | 86
CCC(C)(C)NC(=O)CN(C)S(=O)(=O)c1ccc2c(c1)C(C)(C)C(=O)N2C
    101 | -6 | · | ·
CCOC(=O)C1=C(O)C(=O)N(Cc2ccco2)C1
    103 | -14 | 86 | 84
O=C1C[C@H](c2ccc(O)cc2)Oc2cc(O)cc(O)c21
    100 | -20 | · | ·

7 records picked at random from those above, as already listed:
Every second line gives: GIV-Gai inh | HCMV NEC inh | Sa growth 42C | Sa growth 42C second temp
N#CCc1c(Cl)cccc1Cl
    · | -17 | 74 | -1
Cc1oc2cc(O)ccc2c(=O)c1-c1nc2ccccc2n1C
    107 | -10 | 93 | 86
COc1ccc(S(=O)(=O)NC2COc3ccc(Br)cc3C2)cc1OC (stereo not given)
    104 | -5 | · | ·
CCSc1nnc(NC(=O)/C=C/c2ccccc2)s1
    102 | · | 104 | 86
Cc1cc(C(=O)NCCCN2CCN(c3cc(Cl)ccc3C)CC2)n(-c2ccccc2)n1
    106 | -13 | 87 | 68
N#C/C(=C\c1cn(-c2ccccc2)nc1-c1cccs1)c1ccc(C#N)cc1
    102 | -8 | 99 | 98
CN(C(=O)CSc1ccc2c(c1)OCCO2)c1ccccc1
    · | 2 | 96 | 100

Continued.
Every second line gives: GIV-Gai inh | HCMV NEC inh | Sa growth 42C | Sa growth 42C second temp
CCC(C)NC(=O)c1ccc(NC2=NC3CS(=O)(=O)CC3S2)cc1 (stereo not given)
    108 | · | 94 | 98
O=C(Nc1cccc(Cl)c1)C1=CC=CN2CCS(=O)(=O)N=C12
    · | -25 | 91 | 93
CCCCN(CC)C(=O)Nc1ccc2c(c1)N(C)C(=O)c1ccccc1S2
    105 | -5 | 124 | 97
CCc1ccccc1NC(=O)CSc1nc2ncccc2[nH]1
    104&99 | 4 | 76 | 77
O=C(CSc1n[nH]c(-c2ccc(F)cc2)n1)NCCc1ccccc1
    99 | · | 91 | 97

Single records, from the list above. Order of screens: GIV-Gai inh | HCMV NEC inh | Sa growth 42C | Sa growth 42C second temp
Listed for CCN(CC)C(=O)Cn1c(=O)n(CCCCCC(=O)NCc2ccc(C)cc2)c(=O)c2sccc21 : 103 | 7 | 98 | 95
Listed for COC(=O)CSc1nc(C(C)(C)C)cc(C(F)(F)F)n1 : 106 | -9 | 116 | 111
Listed for COc1ccc(N2CCN(S(=O)(=O)c3c(C)nc4sc(C)cn4c3=O)CC2)cc1 : 104 | · | 119 | 85
